EPAC1 ag val: validation of human EPAC1 agonists; EPAC1 Rap1b BODIPY-GDP exchange, fluorescence; Potency, µM, for the others: max response, positive = active, hits mostly activators; actives 1% (n = 16,000); active = well fitted activation curve with a large enough effect; inconclusive = small, poorly fitted or top-dose-only effect; inactive = no such curve, though single readings can be large or run the other way;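 note: nearly all actives have a fitted effect of over 70% in size; series mostly up to about 76 or 150 µM; scaled to a cAMP control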
Target sequence (O95398 whole entry, looked up): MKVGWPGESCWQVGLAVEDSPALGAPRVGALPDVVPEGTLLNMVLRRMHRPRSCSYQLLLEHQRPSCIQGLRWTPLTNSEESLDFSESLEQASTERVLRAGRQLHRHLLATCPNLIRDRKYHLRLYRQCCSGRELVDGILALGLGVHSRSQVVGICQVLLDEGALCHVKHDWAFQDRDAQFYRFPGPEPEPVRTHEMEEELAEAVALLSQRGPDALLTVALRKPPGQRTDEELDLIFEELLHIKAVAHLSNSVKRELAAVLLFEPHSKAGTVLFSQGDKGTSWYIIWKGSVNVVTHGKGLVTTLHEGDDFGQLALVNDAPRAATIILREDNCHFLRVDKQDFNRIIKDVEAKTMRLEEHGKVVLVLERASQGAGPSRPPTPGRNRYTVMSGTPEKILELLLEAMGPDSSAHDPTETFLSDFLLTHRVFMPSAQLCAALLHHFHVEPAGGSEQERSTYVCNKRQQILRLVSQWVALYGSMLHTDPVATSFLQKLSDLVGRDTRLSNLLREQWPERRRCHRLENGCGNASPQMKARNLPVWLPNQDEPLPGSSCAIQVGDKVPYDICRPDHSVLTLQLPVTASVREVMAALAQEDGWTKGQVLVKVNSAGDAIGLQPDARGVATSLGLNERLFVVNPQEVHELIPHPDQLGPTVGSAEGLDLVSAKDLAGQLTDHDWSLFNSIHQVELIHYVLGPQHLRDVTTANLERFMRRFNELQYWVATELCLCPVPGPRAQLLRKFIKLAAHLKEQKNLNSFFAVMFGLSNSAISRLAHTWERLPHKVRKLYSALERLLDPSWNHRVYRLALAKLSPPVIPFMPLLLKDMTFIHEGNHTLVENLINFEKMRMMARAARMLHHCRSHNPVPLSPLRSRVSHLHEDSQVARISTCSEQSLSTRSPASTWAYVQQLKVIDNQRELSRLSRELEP
* hit, by the source's call; ? = inconclusive; & = joins results of further samples; [ ] = dose if it differs, or a comment. % is set by controls: 0 for no effect and ±100 for the full control effect; potency is the fitted concentration of half-maximal effect. Some of the compounds tested; the hit share may differ from the screen's.

SMILES	EPAC1 ag val
CC(CNC(=O)c1cccnc1)NC(=O)c1cccnc1 (stereo not drawn)	-21%
c1csc(CNc2ccnc(-c3ccoc3)n2)c1	-40%[inhibitor]
COc1cc2c(cc1OC)-c1c(oc3cc(O)cc(O)c3c1=O)CO2	-4%
COc1ccc(Oc2ncc3nc(C)c(=O)n(Cc4ccc(F)cc4)c3n2)cc1	-16%
COc1ccccc1CNc1ccnc(-c2ccc(N(C)C)cc2)n1	17%
CN1CCCC2(CCN(C(=O)c3cccc(F)c3)CC2)C1	-60%[inhibitor]
O=C(c1csnn1)N1CCC2(CC1)CCN(C(c1ccccc1)c1ccccc1)CC2	-2%
COc1ccc2c(c1)OC/C(=C/c1ccc(O)c(O)c1)C2=O	?
O=C(c1cccc(F)c1)N1CCC[C@@]2(CCN(c3ccccc3)C2)C1	-18%
Cc1ccc2nc(N3CCCCCC3)c(CN(CC3CCCO3)C(=O)c3cncs3)cc2c1 (stereo not drawn)	8%

In a second layout: entries from further up
EPAC1 ag val | structure
-40%[inhibitor] | c1csc(CNc2ccnc(-c3ccoc3)n2)c1
-60%[inhibitor] | CN1CCCC2(CCN(C(=O)c3cccc(F)c3)CC2)C1

Continued:
SMILES	EPAC1 ag val
O=S1(=O)CCOC[C@H](c2ccccc2)N1Cc1ccc(Cl)cc1Cl	?
COC(=O)[C@@H]1CCCN1C(=O)c1c(OC)cc(=O)n2c1CCN(Cc1ccc3nsnc3c1)CC2	14%
CCOC(=O)C[C@H]1c2ccccc2S(=O)(=O)N1C1CC1	4%
Cc1c(CN2CCOc3c(O)cc(-c4nc5ccccc5s4)cc3C2)cnn1C	2%
Cn1cc(-c2nc3cncnc3n(C3CC3)c2=O)c2ccccc21	-35%[inhibitor]
CCCCC[C@H](O)/C=C/[C@@H]1[C@@H](C/C=C\CCCC(=O)O)[C@@H](O)C[C@@H]1O	-22%
O=C(c1cc(C(F)(F)F)cc(C(F)(F)F)c1)N1CCC2(CCCN(Cc3nccs3)C2)CC1	-94%[inhibitor]
CC(C)[N+](C)(CCOC(=O)C1c2ccccc2Oc2ccccc21)C(C)C	-8%&-7%
COc1cccc(CN2CCC(n3cc(C(=O)N4CCCCC4)nn3)CC2)c1OC	5%
O=C1CCN(CCc2ccccc2)CCN1[C@H](CO)Cc1ccccc1	?
CCCCCCCCCCCCCCCCOC[C@H](COP(=O)([O-])OCC[N+](C)(C)C)OC(=O)NC	-13%
COCc1c(C(=O)N2CCCCC2c2cccnc2)cnn1-c1ncc2c(n1)-c1ccccc1CCC2 (stereo not drawn)	-4%
Nc1c(Br)cc(Br)cc1CNC1CCC(O)CC1 (stereo not drawn)	?
N[C@@H](Cc1cc(CP(=O)(O)O)cc(-c2ccccc2Cl)c1)C(=O)O	-11%
CC(C)(C)NCC(O)COc1cccc2c1CCC(=O)N2 (stereo not drawn)	-18%
NC[C@H]1O[C@H](O[C@H]2[C@H](O)[C@@H](O[C@H]3O[C@H](CO)[C@@H](O)[C@H](N)[C@H]3O)[C@H](N)C[C@@H]2N)[C@H](O)[C@@H](O)[C@@H]1O	-4%
CC(C)N1C[C@@H](Sc2ccccn2)C[C@H]1C(=O)Nc1ccc2c(c1)Nc1ccccc1CC2	13%
COc1cc(OC)c2c(OC)c(-c3ccc4c(c3)OCO4)c(=O)oc2c1	-28%
CCCCC(=O)O[C@]1(C(=O)CO)CC[C@H]2[C@@H]3CCC4=CC(=O)CC[C@]4(C)[C@H]3[C@@H](O)C[C@@]21C	-15%
CN(C)c1nc(-c2cccc(C#N)c2)nc2ccccc12	?

Given field by field: entries from further up.
CC(C)(C)NCC(O)COc1cccc2c1CCC(=O)N2 (stereo not drawn)
  EPAC1 ag val = -18%

NC[C@H]1O[C@H](O[C@H]2[C@H](O)[C@@H](O[C@H]3O[C@H](CO)[C@@H](O)[C@H](N)[C@H]3O)[C@H](N)C[C@@H]2N)[C@H](O)[C@@H](O)[C@@H]1O
  EPAC1 ag val = -4%

CC(C)N1C[C@@H](Sc2ccccn2)C[C@H]1C(=O)Nc1ccc2c(c1)Nc1ccccc1CC2
  EPAC1 ag val = 13%

(more compounds)
SMILES	EPAC1 ag val
O=c1c(-c2cccc(Cl)c2)nc2cncnc2n1Cc1ccc(F)cc1	0%
O=C(/C=C/c1ccc(F)cc1)NCC1Cc2cccc(-c3ncccn3)c2O1 (stereo not drawn)	-2%
Nc1cccc2[nH]cnc12	30%
O=S1(=O)CCO[C@H]2Cc3ccccc3[C@H]2N1Cc1cccc(Cl)c1	-20%
Nc1ccc(S(N)(=O)=O)cc1	3%&8%
O=c1c(-c2ccc(F)cc2)nc2cnc(N3CCNCC3)nc2n1Cc1cccs1	-14%
COc1ccc(-c2cn(CC3CCCCC3)nn2)cc1	8%
O=C(Nc1cccc(F)c1)N1CCC2(CC1)CCN(C(=O)c1ccco1)CC2	-74%[inhibitor]
CCC1(C2CCN(C(=O)c3ccccc3C(C)=O)CC2)NC(=O)N(CCc2scnc2C)C1=O (stereo not drawn)	-15%
Cn1cc(C(F)(F)F)nc1-c1ccc(OC[C@@H](O)CNCCOc2ccc(O)c(C(N)=O)c2)cc1	-9%

Next section; the last 3 above are carried over.
SMILES	EPAC1 ag val
O=C(Nc1cccc(F)c1)N1CCC2(CC1)CCN(C(=O)c1ccco1)CC2	-74%[inhibitor]
CCC1(C2CCN(C(=O)c3ccccc3C(C)=O)CC2)NC(=O)N(CCc2scnc2C)C1=O (stereo not drawn)	-15%
Cn1cc(C(F)(F)F)nc1-c1ccc(OC[C@@H](O)CNCCOc2ccc(O)c(C(N)=O)c2)cc1	-9%
COc1ccc(/C=C/C(=O)c2cccs2)c(OC)c1	?
CC(C)c1ccc2oc3nc(N)c(C(=O)O)cc3c(=O)c2c1	?
COc1ccccc1-n1cc(CN2CCC3(CCC(CNC(=O)c4ccccc4)O3)CC2)cn1 (stereo not drawn)	-10%
CCN1CCCC1CNC(=O)c1cnn(-c2ncc3c(n2)-c2ccc(OC)cc2CC3)c1C1CC1 (stereo not drawn)	-12%
O=C(c1ccco1)N1CCC[C@@]2(CCN(C(c3ccccc3)c3ccccc3)C2)C1	-42%
COC(=O)c1ccccc1-c1cc(C)cc2c1OC(CNC(=O)c1ccn(C)n1)C2 (stereo not drawn)	1%
CCCCCCCCCCCCCCCCOCCOCCOCCOCCOCCOCCOCCOCCOCCOCCOCCOCCOCCOCCOCCOCCOCCOCCOCCOCCO	-73%[inhibitor]
O=C(CN1CCNCC1)NC1CCCCC1	-10%
COc1ccc(CN2CCOc3ccc(CN4CCC(O)CC4)cc3C2)c(OC)c1OC	10%
Cc1oc(-c2ccccc2NC(=O)c2ccsc2)nc1CN(C)CC1CC=CCC1 (stereo not drawn)	-10%
CN1[C@H](CC(=O)c2ccccc2)CCC[C@H]1C[C@H](O)c1ccccc1	11%
O=C(O)[C@@H]1CSCN1	-34%[inhibitor]
COc1cc(O)c2c(=O)c(O)c(-c3ccc(O)c(O)c3)oc2c1	7%
CCCCC(CC)CCC(CC(C)C)OS(=O)(=O)O (stereo not drawn)	-41%&-26%[inhibitor]
O=C(NCC1Cc2cccc(-c3cnccn3)c2O1)c1ccc2c(c1)OCCO2 (stereo not drawn)	19%
COc1ccccc1CN1CCC2(CC1)CCN(C(=O)c1cccn1C)CC2	-31%[inhibitor]
CN(C)c1ccc(-c2ccc3ncnc(N(C)Cc4ccco4)c3c2)cc1	13%
c1ccc(CNc2cc(-c3ccoc3)ncn2)cc1	6%
c1ccc2c(N3CCCCCC3)nc(CN3CCCCC3c3nccs3)nc2c1 (stereo not drawn)	1%
Cc1[nH]c2c(F)cccc2c1CC(=O)NCCN1Cc2ccccc2OC(C)C1 (stereo not drawn)	7%
OC1(c2ccc(Cl)cc2)CCN(Cc2c[nH]c3ccccc23)CC1	2%&-10%&8%
CC(=O)N[C@@H](CC(=O)O)C(=O)N[C@@H](CCC(=O)O)C(=O)O	-9%
CNc1ncnc2ccc(-c3ccccc3CN(C)C)cc12	-22%
O=C(NNCS(=O)(=O)O)c1ccncc1	56µM*
COc1ncc2nc(-c3ccc(F)cc3)c(=O)n(C)c2n1	-17%
O=C(Nc1ccc(Cl)c(C(F)(F)F)c1)[C@@H]1CC=C[C@@H]2CCN(C3CC3)C(=O)[C@@H]21	-53%[inhibitor]
Clc1ccc(Cn2c(CN3CCCC3)nc3ccccc32)cc1	-8%&18%
CC(C)NC(=O)N1CC[C@@]2(CCCN(C(=O)c3cccn3C)C2)C1	?
O=C(O)CC1CC(c2ccccc2)=NO1 (stereo not drawn)	6%
COc1ccccc1C1CN(CCNC(=O)[C@@H]2CSC(=O)N2)Cc2ccccc2O1 (stereo partly drawn)	6%

Structural class, the entries above with an NH in an aromatic ring (three)
SMILES	EPAC1 ag val
Nc1cccc2[nH]cnc12	30%
Cc1[nH]c2c(F)cccc2c1CC(=O)NCCN1Cc2ccccc2OC(C)C1 (stereo not drawn)	7%
OC1(c2ccc(Cl)cc2)CCN(Cc2c[nH]c3ccccc23)CC1	2%&-10%&8%

Further compounds:
SMILES	EPAC1 ag val
CCCCCCCCCOC(=O)C1N2C(=O)[C@@H](NC(=O)COc3ccccc3)[C@H]2SC1(C)C (stereo partly drawn)	-81%[inhibitor]
CC(C)NCC(O)COc1ccc(COCCOC(C)C)cc1 (stereo not drawn)	?
COc1ccc(-c2cc(=O)c3cc(OC)ccc3o2)cc1	14%
Cc1cccc(CNC(=O)c2c3n(c(C)cc2=O)-c2ccccc2SC(c2sccc2C)C3)n1 (stereo not drawn)	-5%
N#Cc1ccccc1-c1ccc2ncnc(NCc3cccs3)c2c1	11%
COc1ccc(C(=O)N2CCC[C@@]3(CCN(CC(C)C)C3)C2)cc1	-73%[inhibitor]
Cc1ccc(CN2CCc3nnc(C(C)NC(=O)c4cc(F)ccc4F)n3CC2)o1 (stereo not drawn)	17%
Cc1ccc(CC(Cc2nc3ccccc3[nH]2)c2nc3ccccc3[nH]2)cc1 (stereo not drawn)	2%
COc1cc(-c2coc3cc(OCc4ccccc4)c(OC)c(O)c3c2=O)cc(O)c1OC	112µM*
C=CCN1CCc2nc(N)sc2CC1	-33%[inhibitor]
Cc1ccccc1-c1ccc(CN2CCc3nnc(CNC(=O)c4ccccn4)n3CC2)cc1	-15%
COc1ccc2[nH]cc(CCNc3nc(-c4cccc(C#N)c4)nc4ccccc34)c2c1	112µM*
CCN(CC)C(=O)c1cccnc1	4%
CC(C)NC(=O)N1CCC2(CC1)CCN(S(C)(=O)=O)CC2	-4%
COc1ccc2cc([C@H](C)CO)ccc2c1	?
O=C(O)Cc1c[nH]c2ccc(O)cc12	-2%
O=C1CCN(CCc2ccccc2)CCN1CCOc1ccccc1	21%
Cc1cnc(C(=O)NCCc2ccc(S(=O)(=O)NC(=O)NC3CCCCC3)cc2)cn1	-1%&-6%&-1%
COc1ccc2c(c1)CCc1cnc(-n3ncc(C(=O)NCC(C)(C)CN(C)C)c3C)nc1-2	9%
N#Cc1cccc(-c2nccc(-n3ccnc3)n2)c1	-27%
O=C(c1cnccn1)N1CCC2(CC1)CCN(c1ncccn1)CC2	-60%[inhibitor]
CC(NC(=O)c1cccnc1)c1nnc2n1CCN(Cc1ccc(-c3ccccc3)cc1)CC2 (stereo not drawn)	15%
C[C@@H]1CNCCN1S(=O)(=O)c1cccc2cnccc12	-18%
CNc1nc(-c2cccc(C#N)c2)nc2ccccc12	-36%[inhibitor]
O=S(=O)(c1ccccc1)N1CCC2(CCN(C(c3ccccc3)c3ccccc3)CC2)CC1	-33%
COc1cccc(C2(CC(=O)N3CCN(c4ccccn4)CC3)CC(=O)N(C3CCCC3)C2=O)c1 (stereo not drawn)	0%
Cc1cnc(C)c(-c2ccc(F)c3c2OC(CNC(=O)Cc2c(C)[nH]c4ccccc24)C3)n1 (stereo not drawn)	-4%
O=C(C[C@H]1C(=O)N(c2ccc(F)c(F)c2)C[C@@H]1Cc1ccccc1)Nc1ccccc1	-12%
FC(F)(F)c1ccccc1-c1nc(NC2CC2)c2ccccc2n1	-34%[inhibitor]
N#Cc1cccc(NC(=O)N2CC3(CCN(C(=O)c4cnccn4)CC3)C2)c1	-64%[inhibitor]
NC(=O)OCC(O)COc1ccc(Cl)cc1 (stereo not drawn)	10%
C[C@@H]1CCC(=O)N(CC[C@H](Oc2ccccc2)c2ccccc2)CC1	-19%
Cc1c(C(=O)NCC2(N3CCOCC3)CCCCC2)cnn1-c1nccc(-c2ccccc2F)n1	8%
Cc1ccccc1-c1cc(N(C)Cc2ccco2)ncn1	-8%
CCN(CC)C(=S)SSC(=S)N(CC)CC	1%&16%&0%&-68%
O=S1(=O)[C@H]2C[C@@H]3C=C[C@@]2(CN1Cc1ccc(F)cc1)O3	11%
Cc1cnc(CNc2nc(-c3c(C)noc3C)nc3ccccc23)cn1	-16%
O=c1[nH]cnc2c1ncn2[C@@H]1O[C@H](CO)[C@@H](O)[C@H]1O	?
CC(=O)Nc1ccc(OCCOCCOc2ccc(NC(C)=O)cc2)cc1	-17%
COc1ccc(-n2c(=O)c(C)nc3cnc(Oc4ccccc4)nc32)cc1	-40%[inhibitor]
O=S(=O)(O)c1cc(N=C=S)ccc1/C=C/c1ccc(N=C=S)cc1S(=O)(=O)O	?
O=C(O)/C(=C/c1c(C(=O)O)[nH]c2cc(Cl)cc(Cl)c12)c1ccccc1	-1%
O=C(Cc1ccccc1)Nc1nc2ccc(Cl)cc2c2nc(-c3ccco3)nn12	-23%&3%
C=C1C[C@H](OC(=O)C(C)(O)CCl)C2C(=C)C(=O)O[C@@H]2C2C1C[C@H](O)[C@]2(O)CCl (stereo partly drawn)	-17%
CC1(C2CCN(Cc3c[nH]c4ccccc34)CC2)NC(=O)N(CCN2CCOCC2)C1=O (stereo not drawn)	-24%
CCCCCCCCCCCCCCCCCC(=O)OCC(C)O (stereo not drawn)	-26%
CN(CCO)CC(O)Cn1cnc2c1c(=O)n(C)c(=O)n2C (stereo not drawn) (tested in a mixture with another compound)	-1%
CCCCCC=CCC=CCCCCCCCC(=O)OCC	-26%
COC(=O)/C=C/c1ccccc1S(=O)(=O)NC(C)C	-3%
COc1ccccc1CN1CCC2(CC1)CCN(C(=O)c1cccc(F)c1)CC2	-60%[inhibitor]

Source: PubChem BioAssay
